# Compound activity from PubChem.
# ALR H2O2 inh – human ALR oxidase inhibition via reduced H2O2 | P55789 | purified ALR, DTT oxidation, H2O2 HRP-luminol luminescence | inhibition, % (test concentration not listed) | hit rate 3.8% among 290,000 | AID 485317;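 active = mean and each replicate at 75% or more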;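 note: stock transfer was 7.5 nL into about 7.5 µL; 0% = neutral wells and 100% = wells with inactivated enzyme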
# Beta apoptosis – blocks beta cell apoptosis. INS-1E cytokine-induced death, ATP luminescence, 48 h; percent of positive-control rescue, neutral wells zero. protection from apoptosis, % (concentration not given with the values). hit rate 0.8% among 300,000;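 active = all replicates at 75% or more, or half of them and the mean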;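 note: 0% = cytokine-treated negative control wells and 100% = positive control rescue; higher means more ATP so stronger rescue from cytokine killing; wells of about 40 µL received 100 nL stock; the first replicate is given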
# MLL AF4-AF9 inh – MLL-AF4/AF9 protein interaction inhibition; AlphaScreen, biotin-AF4 peptide binding to FLAG-AF9; inhibition, % at 10 µM; AID 651704; hit rate 0.47% among 350,000; P42568;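 active = every replicate reaching a set inhibition limit, whatever the replicate mean, cut at about 25% in these data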;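 note: 0% = plate neutral control median and 100% = total signal loss; the record names both 10 and 1 µM as test concentration; the first replicate is given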
# FGF22 binding – shifts melting point of recombinant human FGF22; recombinant FGF22 thermal shift, SYPRO orange fluorescence; percent of sucrose octasulfate shift, DMSO zero; calls only at 9.99 µM; hit rate 1.5% among 340,000; Q9HCT0;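 active = melting point raised past a set limit in the mean and every replicate; three in four hits are not shown here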
# Target sequence (Q9HCT0 whole entry, looked up): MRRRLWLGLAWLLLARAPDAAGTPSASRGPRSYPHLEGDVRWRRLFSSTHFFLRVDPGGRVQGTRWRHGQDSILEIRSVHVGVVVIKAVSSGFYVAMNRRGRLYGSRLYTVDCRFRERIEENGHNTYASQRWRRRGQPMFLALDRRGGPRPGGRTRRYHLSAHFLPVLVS
# Ecoli rRNA inh – selective bacterial rRNA inhibition in E. coli; E. coli WT GFP vs humanized-ribosome RFP mutants, fluorescence, 24 h; active compounds read low; DMSO median 0, no signal -100; GFP signal change (wild-type ribosome), % (concentration not given with the values); hit rate 1.6% among 350,000; AID 720706;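 active = significant combined selectivity score with lowered wild-type GFP, culture density cut under 30%, mutant RFP and density less affected; inactive = any of these conditions unmet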; note: one replicate is shown; some compounds called inactive have numbers as strong as hits
# Ecoli rRNA inh OD600 – further read-out of Ecoli rRNA inh, marked with its call; OD600 change, %; measured here: OD600 growth;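 optical density of the mix in the first replicate; 0 = DMSO median and -100 = no signal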
# Ecoli rRNA inh RFP – further read-out of Ecoli rRNA inh, marked with its call; RFP signal change, %; measured here: RFP humanized mutant strains;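 first replicate; 0 = DMSO median and -100 = no signal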
# Starred values were filed as active, the others as inactive; i = inactive; x = no result given. This is a subset. The share of hits here may be higher or lower than overall.
SMILES,ALR H2O2 inh,Beta apoptosis,MLL AF4-AF9 inh,FGF22 binding,Ecoli rRNA inh,Ecoli rRNA inh OD600,Ecoli rRNA inh RFP
O=c1c(O[C@@H]2O[C@H](CO)C(O)C2O)c(-c2ccc(O)c(O)c2)oc2cc(O)cc(O)c12 (stereo partly drawn),100*,1,x,x,x,x,x
Cc1cc(O)c2c(c1)C(=O)c1cccc(O)c1C2=O,x,x,4.7,i,x,x,x
COc1ccccc1OC(=O)Oc1ccccc1OC,x,x,-1.2,x,-5,-4,0.9
CC(=O)OCC(=O)C1(O)CCC2C3CCC4=CC(=O)C=CC4(C)C3(F)C(O)CC21C (stereo not drawn),x,x,1.5,i,-4,-1,5.1
O=C1c2ccccc2C(=O)c2c(O)c(O)cc(O)c21,x,x,4.1,i,-53,-64,53
COC(=O)Nc1nc2ccc(C(=O)C3CC3)cc2[nH]1,x,x,-3.3,i,8,11,1.0

# 3 of the compounds above, bar-delimited:
Molecule | ALR H2O2 inh | Beta apoptosis | MLL AF4-AF9 inh | FGF22 binding | Ecoli rRNA inh | Ecoli rRNA inh OD600 | Ecoli rRNA inh RFP
O=c1c(O[C@@H]2O[C@H](CO)C(O)C2O)c(-c2ccc(O)c(O)c2)oc2cc(O)cc(O)c12 (stereo partly drawn) | 100* | 1 | x | x | x | x | x
Cc1cc(O)c2c(c1)C(=O)c1cccc(O)c1C2=O | x | x | 4.7 | i | x | x | x
COc1ccccc1OC(=O)Oc1ccccc1OC | x | x | -1.2 | x | -5 | -4 | 0.9

# Single records, as listed above. Values in the order: ALR H2O2 inh	Beta apoptosis	MLL AF4-AF9 inh	FGF22 binding	Ecoli rRNA inh	Ecoli rRNA inh OD600	Ecoli rRNA inh RFP
# `COc1ccccc1OC(=O)Oc1ccccc1OC` across the screens: x	x	-1.2	x	-5	-4	0.9
# `Cc1cc(O)c2c(c1)C(=O)c1cccc(O)c1C2=O` across the screens: x	x	4.7	i	x	x	x
